# Source: PubChem BioAssay (ICCB-Longwood Screening Facility, Harvard Medical School)
# Choline anaer gr – inhibitors of anaerobic choline-dependent gram-negative bacterial growth; Gram-negative bacterium anaerobic choline minimal medium, absorbance growth; hits give low values; many inactives read as strong as hits in the columns shown; calls only; 55,000 compounds, 0.2% hits; AID 1963822;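 active means growth z-score on choline under -2 at 7 or 20 h with little or no fall on glycerol, limits in tiers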;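 further: stock transfer was 300 nL into about 50 µL; the organism is E. coli; final concentration not given here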
# Choline anaer gr early – second read-out of Choline anaer gr, no call of its own (marks repeat the call); z-score; measured here: choline growth z-score, timepoint 1;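 score of optical density at 7 h as mean of two plates; lower means less growth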
# * hit, by the source's call; i = inactive; & = joins results of further samples.
SMILES,Choline anaer gr,Choline anaer gr early
O=c1nc(SCc2ccccc2F)c2c(n1C1CCCCC1)CCC2,i,0.92
COCC(=O)Nc1c(I)c(C(=O)NCC(O)CO)c(I)c(C(=O)N(C)CC(O)CO)c1I (stereo not given),i,-0.11
CC(C)Cn1cnc2nc(CSc3ccccc3NC(=O)COc3cccc(F)c3)cc(=O)n21,i,0.36
O=c1c2sccc2n2c(SCc3ccccc3)nnc2n1CCc1ccccc1,i,1.3
O=C(NCc1ccc2c(c1)OCO2)c1cc(-c2cccnc2)nc2ccc(Cl)cc12,i,-1.5
CCOc1ccc(NC(=O)CSc2nc(N3CCCCC3)nc3ccccc23)cc1,i,-0.12
Cc1ccc(-c2cc(Nc3ccccc3F)nc(C)n2)cc1,i,-0.9
CCCS(=O)(=O)N1CCN(Cc2noc(CCC(=O)N(C)Cc3ccccc3)n2)CC1,i,-0.39
CC1=NOC(C)(CNC(=O)NC2CCCC2)C1 (stereo not given),i,1.2
CCOC(=O)CCC(=O)c1c(C(=O)OCC)[nH]c2ccc(Cl)cc12,i,0.76
COc1ccc2cc3c(nc2c1)N(S(=O)(=O)c1ccc(C(C)C)cc1)CC3,i,1.8
COCC(=O)Nc1ccc(-c2nc3ccccc3s2)cc1,i,-0.43
COc1ccccc1CC1C(=O)Nc2ccccc21 (stereo not given),i,0.63
O=C(Nc1cccc(Cl)c1)c1ccc(-n2nc(OCc3ccc(Cl)cc3)ccc2=O)cc1,i,0.36
CCOC(=O)c1nc(N2CCCC2)c2c(C)noc2n1,i,-0.15
O=C(Nc1ccc(Br)cc1)c1ccc(Nc2ccnc(-c3ccc(F)cc3)n2)cc1,i,-0.17
CCC(C)NC(=O)c1ccc(NC(=O)N2CCCCc3ccccc32)cc1 (stereo not given),i,0.2
COc1ccccc1CNC(=O)C1(C)Cn2c(cc3ccsc32)C(=O)N1c1cccc(C)c1C (stereo not given),i,0.92
NC(=O)c1ccccc1NC(=O)Cc1csc(NC(=O)c2ccccc2)n1,i,-0.04
O=C(NC(C(=O)N1CCCc2ccccc21)c1ccccc1)C1CC1 (stereo not given),i,0.36
Cc1[nH]c(C(=O)NCc2ccc(Cl)cc2)c(C)c1S(=O)(=O)N1CCCC1,i,-0.88
Cc1nn(-c2ccc3nnc(C)n3n2)c2c1C(c1ccc(C(C)C)cc1)CC(=O)N2 (stereo not given),i,-1.5
Cc1ccc(-c2ccc(C(=O)NC3CC3)cn2)cc1,i,-1.1
O=C(Cn1nc2c(Sc3ccccc3)nc3ccccc3n2c1=O)Nc1ccc(F)cc1,i,-0.17
Cc1ccc(Cn2c(=O)c3ccccc3n3c(=O)[nH]nc23)cc1,i,-1.3
Cc1cc(C)cc(NC(=O)c2sc(C)nc2C)c1,i,0.33
CC(C)(C)NCc1ccc(-c2ccc(F)cc2)o1,i,-1.3
CCOc1ccc(CCNC(=O)c2nc(N3CCOCC3)c3ccccc3n2)cc1OCC,i,-0.58
Cc1nc(-c2cc(NC(=O)c3ccc(Cl)cc3)c(C)s2)no1,i,1.2
O=C1CCC(=O)N1CCCn1c2ccccc2c2nc3ccccc3nc21,i,1.4
CC1=NS(=O)(=O)c2cccnc2N1c1ccc(Cl)cc1,i,-1.4
Cc1ccc(-c2cc3nccc(-c4cc(Cl)ccc4O)n3n2)cc1,i,1.3
CNC(=O)N1c2ccccc2NC2=C(C(=O)CC(C)(C)C2)C1c1ccc(OC)cc1 (stereo not given),i,-0.14
COc1ccc(Cl)cc1NC(=O)c1[nH]c(C)c(S(=O)(=O)N2CCCC2)c1C,i,-0.52
COc1ccc2c(c1)C=C(C(=O)O)CO2,i,-1.6
O=C(COc1ccccc1-c1nnc(-c2ccccc2)o1)NCCc1ccc(Cl)cc1,i,-1.4
CCN(CC)S(=O)(=O)c1ccc2c(c1)N(CC(=O)NC(C)C)C(=O)CS2,i,-0.25
CCOc1ccc(CCNS(=O)(=O)c2c(C)nc3sc(CC)nn3c2=O)cc1OCC,i,1
COc1ccc(C)cc1Nc1n[nH]nc1C(=O)NCc1ccc(Cl)cc1,i,0.62
Cc1cccc(C(=O)Nc2ccc3nc(SCc4cc(=O)c5cc(C)ccc5[nH]4)sc3c2)c1,i,-0.21
Cn1c(SCc2nc(-c3ccc(F)cc3)no2)nc2cc(-c3ccccc3)sc2c1=O,i,-0.35
COc1ccccc1CNC1=NCCCNC12CCCCC2,i,-0.38
CCCCC(=O)NC(c1ccc(N(C)C)cc1)c1ccc2cccnc2c1O (stereo not given),i,-1.7
CC(C)c1ccc(NC(=O)c2ccc3c(c2)NC(=O)C2CCCCN32)cc1 (stereo not given),i,0.79
CCOc1ccccc1NC(=O)C1CCN(S(=O)(=O)c2ccc3c(c2)CC(C)N3C(C)=O)CC1 (stereo not given),i,0.05
O=C(C1CCN(c2ncnc3c2oc2ccccc23)CC1)N1CCN(C2CCCCC2)CC1,i,-0.69
Cc1ccc(Nc2ncnc3sc(C)c(S(=O)(=O)N4CCCCC4)c23)cc1F,i,1.3
CCn1c(=O)n(-c2ccc(C)c(C)c2)c2nc(-c3ccc(C)c(C)c3)nc(C(N)=O)c21,i,0.33
CCn1c(=O)oc2cc(NS(=O)(=O)c3ccc4c(c3)n(C)c(=O)n4C)ccc21,i,0.46
CCN1CCN(C(=O)c2cc(=O)n(C)c3c2c(=O)n(C)c(=O)n3C)CC1,i,-1.5
COc1ccc(-c2noc3ncnc(N4CCC(C(=O)NC5CC5)CC4)c23)cc1,i,-0.25
COc1ccc(-c2noc(-c3nn(-c4ccc(C)cc4)ccc3=O)n2)cc1,i,-0.41
O=c1cc(CN(Cc2ccccc2)Cc2ccccc2)nc2sccn12,i,0.73
CCCCC(=O)Nc1cnc(N2CCN(c3cc(Cl)ccc3C)CC2)c(C(=O)O)c1,i,0.26
CC1CCN(S(=O)(=O)c2ccc3nn(CC#N)c(=O)n3c2)CC1,i,0.86
CC1(C(=O)NC2CCCC2)Cn2c(cc3ccsc32)C(=O)N1c1ccc(F)cc1 (stereo not given),i,0.71
O=C(Nc1cnc(N2CCN(c3ccccc3)CC2)c(C(=O)O)c1)c1ccc(Cl)cc1,i,-0.89
O=C1c2sc3nc4n(c(=O)c3c2CCC1Br)CCCCC4 (stereo not given),i,1.1
Cc1nn2c(N3CCOCC3)cc(C(C)(C)C)nc2c1-c1ccc(F)cc1,i,0.51
Cc1c(C(=O)NCCc2nc(-c3ccccc3)no2)oc2ccc(Br)cc12,i,1

# Some of the entries so far, with each value named:
molecule: Cc1c(C(=O)NCCc2nc(-c3ccccc3)no2)oc2ccc(Br)cc12
- Choline anaer gr: i
- Choline anaer gr early: 1
molecule: CCCCC(=O)Nc1cnc(N2CCN(c3cc(Cl)ccc3C)CC2)c(C(=O)O)c1
- Choline anaer gr: i
- Choline anaer gr early: 0.26
molecule: CCn1c(=O)oc2cc(NS(=O)(=O)c3ccc4c(c3)n(C)c(=O)n4C)ccc21
- Choline anaer gr: i
- Choline anaer gr early: 0.46
molecule: CCn1c(=O)n(-c2ccc(C)c(C)c2)c2nc(-c3ccc(C)c(C)c3)nc(C(N)=O)c21
- Choline anaer gr: i
- Choline anaer gr early: 0.33

# (further entries)
SMILES,Choline anaer gr,Choline anaer gr early
Cc1ccc(NC(=O)C2CCCN2S(=O)(=O)c2cc3c(cc2C)NC(=O)CO3)cc1Cl (stereo not given),i,-0.01
Cc1ccc2c(c1)Oc1ccc(S(=O)(=O)N3CCCCC3)cc1C(=O)N2,i,0.14
Cn1c(=O)c2c(-c3ccccc3Br)n(C[C@H]3CCCO3)cc2n(C)c1=O,i,-0.74
CNC(=O)c1ccc(-c2nc(CN3CCN(S(=O)(=O)N(C)C)CC3)c(C)o2)cc1,i,-0.48
Cc1cccc(C(=O)N2CCCc3cc(C(N)=O)ccc32)c1,i,0.07
C[C@@H](O)[C@@H]1NC(=O)[C@H](CCCCN)NC(=O)[C@@H](Cc2c[nH]c3ccccc23)NC(=O)[C@H](Cc2ccccc2)NC(=O)[C@@H](NC(=O)[C@H](N)Cc2ccccc2)CSSC[C@@H](C(=O)N[C@H](CO)[C@@H](C)O)NC1=O,i,0.25
O=C(NCCn1c(C(F)(F)F)nc2cccnc21)c1ccccc1Br,i,-0.35
O=C(CCCn1c(=O)c2cccn2c2ccc(F)cc21)NCc1ccccn1,i,0.48
Cc1cc(C)cc(Nc2c(C(=O)N3CCCCC3)cnc3ccc(F)cc23)c1,i,-0.02
Cc1nc2cc3c(cc2n1C)OCCO3,i,-1.7
CCCN1CCN(S(=O)(=O)c2cc(-c3cc(C(F)(F)F)[nH]n3)sc2C)CC1,i,0.24
CCCN1CCN(c2ncnc3sc(C(=O)NCCc4c[nH]c5ccc(Cl)cc45)c(C)c23)CC1,i,-0.27
Cc1cc(Nc2ccccc2C)nc(-n2nc(C)cc2C)n1,i,0.31
O=C(c1ccco1)N1CCN([C@H]2CS(=O)(=O)C[C@@H]2S(=O)(=O)c2cccs2)CC1,i,-0.85
CNC(=O)c1ccc(-c2nc3cc(NS(=O)(=O)c4cc(F)ccc4F)ccc3n2C)cc1,i,0.64

# A section from the list above, as a working copy:
SMILES,Choline anaer gr,Choline anaer gr early
O=C(CCCn1c(=O)c2cccn2c2ccc(F)cc21)NCc1ccccn1,i,0.48
Cc1cc(C)cc(Nc2c(C(=O)N3CCCCC3)cnc3ccc(F)cc23)c1,i,-0.02

# New compounds follow:
SMILES,Choline anaer gr,Choline anaer gr early
CCn1c(=O)c(C(=O)Nc2cccc(Cl)c2)c(O)c2ccccc21,i,0.5
COCCn1ccc2nc(C)c(C(=O)N3CCC(C)CC3)cc2c1=O,i,1.1
Cc1cc(-c2ccc(=O)[nH]n2)cc(S(=O)(=O)N2CCC(Cc3ccccc3)CC2)c1C,i,1.6
COc1ccc(C(=O)NCc2cccnc2)cc1C(=O)NCc1cccnc1,i,0.4&0.83&0.59
CCCn1c(Cn2ccnc2C)nc2cc(NC(=O)c3ccccc3C)ccc21,i,1.5
COc1ccc(C(=O)NCC(c2ccccc2)c2c[nH]c3ccccc23)cc1 (stereo not given),i,0.5
Cc1ccc(-c2noc(-c3cc(C)[nH]n3)n2)cc1,i,1.1
Cc1cccc(NC(=O)CSc2nc3ccccc3nc2N2CCC(C)CC2)c1C,i,-0.12
CCc1cc(C2CCCN2Cc2ccc(O)cc2)on1 (stereo not given),i,-1
CN(C(=O)CSc1nnc(CN(c2ccc(F)cc2)S(C)(=O)=O)n1C)c1ccccc1,i,-0.2
N#CC1=CN(c2cc(F)ccc2F)c2cccc(F)c2S1(=O)=O,i,0.36
CNCc1ccc(OCc2ccc3c(c2)n(C)c(=O)n3C)c(OC)c1,i,-0.74
O=C(NC1CCCC1)N1CCOc2ccc(COCc3ccc(Cl)cc3)cc2C1,i,0.45
Cn1nc(CO)c2c1CCN(Cc1ccc(Br)o1)C2,i,-0.23
CCOc1ccccc1OCc1nn2c(CSc3ccccc3)nnc2s1,i,-0.73
O=c1oc2cc(O)ccc2cc1-c1cc(F)cc(F)c1,i,1.2
CC1CCCN(c2cc(CNS(C)(=O)=O)ccn2)C1 (stereo not given),i,-0.5
Cc1noc(C)c1S(=O)(=O)N1CCCC(c2nc(CNC(=O)C(C)C)cs2)C1 (stereo not given),i,-2
CC(C)S(=O)(=O)N1CCCN(C(=O)C2CC2)CC1,i,-0.52
O=C(Nc1ccc(Cl)cc1)c1n[nH]nc1Nc1ccccc1,i,-1.8
CCn1nc(C)c2ccnc(N3CCC(C(=O)NCCN4CCC(N5CCCCC5)CC4)CC3)c21,i,0.21
O=C(Nc1ccc(F)cc1)c1nnc(C(=O)N2CCCC(C(=O)NCc3ccccc3)C2)s1 (stereo not given),i,-0.22
Cc1ccccc1NC(=O)C1Nc2cc(F)ccc2S(=O)(=O)N1 (stereo not given),i,0.2
Cc1ccc(-c2nc(C(=O)Nc3ccc(F)cc3F)c3n2CCCCC3)cc1,i,0.62
CC(C)c1cnc2c(c1SCC(=O)N(C(C)C)C(C)C)c(=O)n(C)c(=O)n2C,i,-0.47
Cc1oc(-c2ccccc2)nc1CSc1nccn2nc(-c3ccc(Br)cc3)cc12,i,-0.75
O=C(CCC(=O)N1CCN(c2nc3cccnc3s2)CC1)NCCc1c[nH]c2ccc(Cl)cc12,i,-0.49
Cn1c(C(=O)Nc2ccc3c(c2)OCCO3)cc2c(=O)oc3ccccc3c21,i,1.2
CC1CCN(CCCn2c(SCC(=O)NC3CCCC3)nc3ccccc3c2=O)CC1,i,-0.79
O=C(Nc1ccccc1)Nc1cccc(-c2noc(C3CCCC3)n2)c1,i,0.89
CCCC(=O)N(Cc1nc2nc(C)cc(=O)n2[nH]1)c1ccccc1OC,i,0.25
Cn1c(SCC(=O)N2CCCc3ccccc32)nc2cc(-c3ccccc3)sc2c1=O,i,-1.6
COc1cccc(Cn2nnc3cc(C(=O)NCc4ccccc4Cl)ccc32)c1,i,2
Cc1cc(=O)[nH]c(Nc2ccc(O)cc2C)n1,i,-0.28
Cc1ccc(-c2cncc(C(=O)NCCC3=CCCCC3)c2)cc1,i,1.2
Cc1ccc(NC(=O)CSc2ncnc3nc(N(C)C)sc23)c(F)c1,i,0.82
O=C(C1CCN(c2cc(N3CCCCC3)ncn2)CC1)N1CCC2(CC1)OCCO2,i,1.6
Cc1ccc(NC(=O)C2CCN(c3nnc(-n4c(C)ccc4C)s3)CC2)cc1C,i,-0.38
c1ccc2c(OCc3nc4c5ccccc5ncn4n3)cccc2c1,i,1.1
Cc1ccc(-c2nc3cnccn3c2Nc2ccccc2C)cc1,i,-0.02
O=c1ccc(-c2ccccc2)nn1Cc1nc(-c2ccccc2)no1,i,0.21

# Some of the entries so far, as labelled records.
CCCC(=O)N(Cc1nc2nc(C)cc(=O)n2[nH]1)c1ccccc1OC
  Choline anaer gr: i
  Choline anaer gr early: 0.25
Cn1c(SCC(=O)N2CCCc3ccccc32)nc2cc(-c3ccccc3)sc2c1=O
  Choline anaer gr: i
  Choline anaer gr early: -1.6

# Only part of the results is shown; count on the stated rates, not on these rows.
